Source: PubChem (Broad Institute)
A1 inhib: blocks A1 activity; caspase activation, % (concentration not given with the values); MEF A1-2A-BIM cells, caspase-Glo luminescence, 3 h; percent of clofoctol signal, DMSO as zero; AID 2241; hit rate 0.51% among 21,000;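 active = most replicate scores above 10, or exactly half above 10 with mean activity above 10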;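 also: effector caspase 3 and 7 activity cleaving a DEVD luciferin substrate; 50 nL library stock added to about 30 µL; numbers are from one replicate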
BJeLR viability: BJeLR cell viability reduction. hit rate 0.64% among 30,000. BJeLR fibroblasts viability, CellTiterGlo ATP luminescence, 48 h; HRASV12, hTERT and SV40 LT/ST transformed. viability loss activity score, % (test concentration not listed); in the data active = viability loss activity score above about 50%; about a fifth of its hits are not listed in these tables;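 also: higher score means fewer live cells and less ATP luminescence; stock transfer was 50 or 100 nL into about 30 µL; 0% = vehicle wells and 100% = a reference killing control; one replicate is shown; the record names a cut of 85%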
The depositor's hits bear a star; . = no result given.

SMILES | A1 inhib | BJeLR viability
C[C@@H]1CN([C@H](C)CO)C(=O)c2cc(NC(=O)Cc3cn(C)c4ccccc34)ccc2O[C@H]1CN(C)C(=O)Nc1ccc2c(c1)OCO2 | 0.8 | 1.3
O=C(Nc1ccc(-c2nc3ncccc3o2)cc1)c1ccccc1 | -0.9 | -0.5
O=C(Nc1ccc2ccccc2n1)c1ccc(Cl)cc1 | -5.5 | 8.8
C[C@@H]1CN([C@H](C)CO)C(=O)c2cccc(NS(C)(=O)=O)c2O[C@H]1CN(C)Cc1ccc(C(F)(F)F)cc1 | . | 2.5
Cc1nn(C)cc1C(=O)c1ccccc1 | 0.6 | -1.9
COc1ccc(S(=O)(=O)N(C)C[C@H]2Oc3ccc(NC(=O)C4CC4)cc3C(=O)N([C@@H](C)CO)C[C@@H]2C)cc1 | 0.1 | -1.6
Cc1noc(C)c1S(=O)(=O)Nc1ccc2c(c1)C(=O)N([C@H](C)CO)C[C@@H](C)[C@@H](CN(C)Cc1ccccc1)O2 | 1.1 | 1.9
CCN(CC)c1ccc(/C=C2\CCc3ccccc3C2=O)cc1 | . | 41
CCC(C)C(=O)c1c(O)cc2c(c1O)CC(CC=C(C)C)C(C)(C)O2 (centres undefined) | 0.0 | 0.6
COc1ccc(S(=O)(=O)Nc2cccc3c2O[C@H](CN(C)C(=O)Nc2cccc4ccccc24)[C@@H](C)CN([C@H](C)CO)C3=O)cc1 | . | 0.5

For convenience, 3 of the compounds above:
SMILES | A1 inhib | BJeLR viability
C[C@@H]1CN([C@H](C)CO)C(=O)c2cc(NC(=O)Cc3cn(C)c4ccccc34)ccc2O[C@H]1CN(C)C(=O)Nc1ccc2c(c1)OCO2 | 0.8 | 1.3
O=C(Nc1ccc(-c2nc3ncccc3o2)cc1)c1ccccc1 | -0.9 | -0.5
O=C(Nc1ccc2ccccc2n1)c1ccc(Cl)cc1 | -5.5 | 8.8

Back to the main list, repeating the 2 entries before the break.
SMILES | A1 inhib | BJeLR viability
CCC(C)C(=O)c1c(O)cc2c(c1O)CC(CC=C(C)C)C(C)(C)O2 (centres undefined) | 0.0 | 0.6
COc1ccc(S(=O)(=O)Nc2cccc3c2O[C@H](CN(C)C(=O)Nc2cccc4ccccc24)[C@@H](C)CN([C@H](C)CO)C3=O)cc1 | . | 0.5
C[C@@H]1CN([C@H](C)CO)C(=O)c2cc(NC(=O)Cn3cnnn3)ccc2O[C@@H]1CN(C)Cc1ccc(Cl)c(Cl)c1 | -0.4 | -2.2
C[C@@H]1CN([C@@H](C)CO)C(=O)c2cc(NC(=O)C3CCCCC3)ccc2O[C@H]1CN(C)C(=O)Nc1ccc2c(c1)OCO2 | 0.6 | 0.7
C[C@@H]1CN([C@H](C)CO)C(=O)c2cccc(NC(=O)Nc3ccc(F)cc3)c2O[C@H]1CN(C)C(=O)Nc1ccccc1 | . | 1.3
COc1ccc(S(=O)(=O)N(C)C[C@@H]2Oc3ccc(NC(=O)Cc4ccccc4)cc3C(=O)N([C@@H](C)CO)C[C@H]2C)cc1 | -0.1 | 1.8
CNC(=O)CN1C(=O)/C(=C/c2ccccc2C)Sc2ccccc21 | . | 0.0
COc1cccc(/C=C2\SC(=S)N(C(Cc3ccccc3)C(=O)O)C2=O)c1 (centres undefined) | -0.8 | -0.7
Cc1ccc(S(=O)(=O)N(C)C[C@@H]2Oc3c(NC(=O)Nc4ccc(F)cc4)cccc3C(=O)N([C@H](C)CO)C[C@H]2C)cc1 | . | 1.4
O=C(COc1nsnc1N1CCOCC1)c1ccccc1 | -0.1 | -5.8
C=CCN(CC=C)CC(O)Cn1c(-c2ccc(OC)cc2)cc2ccccc21 (centres undefined) | 0.3 | -3.4
C[C@@H]1CN([C@@H](C)CO)C(=O)c2cccc(NC(=O)C3CCOCC3)c2O[C@H]1CN(C)CC1CCCCC1 | . | 7.2
Cc1cc(C(=O)Nc2cccc3c2O[C@@H](CN(C)S(=O)(=O)c2ccc(F)cc2)[C@@H](C)CN([C@H](C)CO)C3=O)n(C)n1 | . | -0.3
C[C@H](CO)N1C[C@H](C)[C@@H](CN(C)CC2CCCCC2)Oc2ccc(NS(=O)(=O)c3cn(C)cn3)cc2C1=O | -0.7 | 0.6
CCOC(=O)c1cc(C#N)c(Nc2ccccc2OC)nc1C(F)(F)F | -0.5 | -2.9
C[C@@H]1CN([C@H](C)CO)C(=O)c2cc(NC(=O)Cc3ccccc3)ccc2O[C@H]1CN(C)S(=O)(=O)c1ccccc1 | 0.7 | -1.9
CC1(C)CC[C@]2(C(=O)O)CC[C@]3(C)C(=CCC4[C@@]5(C)CC[C@H](O[C@@H]6O[C@H](C(=O)O)[C@@H](O[C@@H]7OC[C@@H](O)[C@H](O)[C@H]7O)[C@H](O)[C@H]6O)C(C)(C)C5CC[C@]43C)C2C1 (some centres undefined) | 0.0 | 0.9
S=c1nn[nH]n1C1CC2CC1C1C=CCC21 (centres undefined) | -0.2 | 4.6
Cc1ccccc1OCCn1c(CCCNC(=O)C2CCCCC2)nc2ccccc21 | 0.1 | -4.3
C[C@@H]1CN([C@H](C)CO)C(=O)c2cccc(NS(=O)(=O)c3cccs3)c2O[C@H]1CN(C)S(=O)(=O)c1cn(C)cn1 | . | 0.8
COc1ccc(S(=O)(=O)Nc2cccc3c2O[C@@H](CN(C)C(=O)Nc2ccccc2)[C@@H](C)CN([C@@H](C)CO)C3=O)cc1 | . | 0.8
COc1ccc(NC(=O)Nc2ccc3c(c2)C(=O)N([C@H](C)CO)C[C@H](C)[C@@H](CN(C)Cc2ccc(-c4ccccc4)cc2)O3)cc1 | 0.1 | -3.8
C[C@H](CO)N1C[C@H](C)[C@@H](CN(C)C)Oc2c(NC(=O)Nc3ccc4c(c3)OCO4)cccc2C1=O | . | -1.5
CCc1cccc(NC(=O)C2=C(C)C(=O)OC23CCCCC3)c1 | . | 7.5
CC(=O)NN1C(=O)/C(=C2\C(=O)N(C)c3ccccc32)SC1=S | 0.1 | 2.2
C[C@H](CO)N1C[C@H](C)[C@H](CN(C)C(=O)Nc2cccc3ccccc23)Oc2c(NC(=O)Nc3ccc(C(F)(F)F)cc3)cccc2C1=O | . | 0.6
CC1=C(C(=O)Nc2ccccn2)C(c2ccc(C)cc2)C2=C(CC(C)(C)CC2=O)N1 (centres undefined) | 0.4 | -0.2
CN(C)c1c(F)cc(C(=O)NC(=O)NCc2cccnc2)cc1F | -0.3 | -0.4
O=C1NCCCC1C(=O)Nc1ccccc1C(F)(F)F (centres undefined) | . | 1.1
COc1ccc(NC(=O)N(C)C[C@H]2Oc3ccc(NC(=O)Nc4ccc5c(c4)OCO5)cc3C(=O)N([C@@H](C)CO)C[C@@H]2C)cc1 | 0.0 | -4.8
CCN(C)CC12CC3CC(CC(C3)C1)C2 | -1.0 | 11
C[C@@H]1CN([C@H](C)CO)C(=O)c2cc(NS(C)(=O)=O)ccc2O[C@H]1CN(C)C | 0.3 | 1.7
C[C@@H]1CN([C@@H](C)CO)C(=O)c2cc(NS(=O)(=O)c3ccc(F)cc3)ccc2O[C@@H]1CN(C)Cc1ccc(-c2ccccc2)cc1 | -0.3 | -33
C[C@@H]1CN([C@H](C)CO)C(=O)c2cc(NC(=O)C3CCCCC3)ccc2O[C@@H]1CN(C)C(=O)Nc1ccc2c(c1)OCO2 | -0.3 | -3.2
C[C@@H]1CN([C@H](C)CO)C(=O)c2cccc(NC(=O)Nc3ccc(C(F)(F)F)cc3)c2O[C@@H]1CN(C)S(=O)(=O)c1cccs1 | . | -2.5
COC(=O)C1=COC(O[C@@H]2O[C@H](CO)[C@@H](O)[C@H](O)[C@H]2O)[C@@H]2[C@@](C)(O)CC[C@]12O (some centres undefined) | 0.4 | 0.9
CC(C)OC(=O)Cn1cnc2ccc(Br)cc2c1=O | -0.1 | -2.1
CN(/N=C/c1ccccc1)C1=NS(=O)(=O)c2ccccc21 | -1.1 | -7.1
O=C(O)c1ccccc1N1C(=O)c2ccccc2C1=O | . | 1.0
NCCSC12CC3CC(CC(C3)C1)C2 | 1.3 | -6.4
C[C@@H]1CN([C@H](C)CO)C(=O)c2cccc(NC(=O)NC3CCCCC3)c2O[C@@H]1CN(C)C(=O)Nc1ccc2c(c1)OCO2 | . | -3.1
C[C@@H]1CN([C@@H](C)CO)C(=O)c2cc(NC(=O)CCC(F)(F)F)ccc2O[C@H]1CN(C)Cc1ccc(C(=O)O)cc1 | 0.0 | 2.6
Cc1ccc(Cl)cc1N(C)C(=O)c1cc2c(-c3ccc(Cl)cc3)nn(C)c2s1 | . | -0.3
COc1cc2ccc(=O)oc2cc1O | -0.2 | 1.2
C[C@H]1CN([C@@H](C)CO)C(=O)c2cc(NS(C)(=O)=O)ccc2O[C@H]1CN(C)S(=O)(=O)c1ccccc1 | -0.3 | 2.0
C[C@@H]1CN([C@@H](C)CO)C(=O)c2cc(NS(=O)(=O)c3ccc(Cl)cc3)ccc2O[C@H]1CN(C)S(C)(=O)=O | 0.4 | -4.3
COc1ccc2cc3c(N)nn(C(=O)Cc4c(F)cccc4Cl)c3nc2c1 | . | 10
C=C(C)CC1C(=O)NN=C1C (centres undefined) | 0.1 | -7.0
CN(C)C(=S)Nc1ccccc1 | 0.5 | -1.7
Cc1cccc(C(=O)Nc2ccc(NC(=O)c3ccco3)cc2)c1 | -4.9 | 0.3
C[C@H](CO)N1C[C@H](C)[C@H](CN(C)C)Oc2c(NC(=O)C3CCOCC3)cccc2C1=O | . | -3.8
C[C@H](CO)N1C[C@H](C)[C@H](CN(C)S(=O)(=O)c2ccccc2)Oc2ccc(NC(=O)c3ccncc3)cc2C1=O | 0.1 | 0.0
Continued.
SMILES | A1 inhib | BJeLR viability
CNC(=O)c1cnc2cc(Cl)ccc2c1OC | 0.5 | 0.9
O/N=C(\Cn1cncn1)c1ccc(Cl)cc1Cl | 0.2 | -2.2
O=C(Nc1ccc(-c2nc3ccccc3[nH]2)cc1)c1ccc(-c2ccccc2)cc1 | -0.9 | 2.0
C[C@H](CO)N1C[C@H](C)[C@@H](CN(C)S(=O)(=O)c2ccc(Cl)cc2)Oc2ccc(NS(=O)(=O)c3cccs3)cc2C1=O | 0.3 | 1.3
COc1ccc(-c2coc3cc(O)ccc3c2=O)cc1 | -4.7 | 4.4
COc1ccc(C(O)c2cccs2)cc1OC (centres undefined) | . | -0.8
C[C@@H]1CN([C@H](C)CO)C(=O)c2cc(NC(=O)Cc3ccccc3)ccc2O[C@H]1CN(C)Cc1ccccc1 | -0.4 | -3.4
O=C1NCCN1c1ncc([N+](=O)[O-])s1 | 0.6 | -2.9
CNC[C@H]1Oc2c(NC(=O)Nc3cccc4ccccc34)cccc2C(=O)N([C@H](C)CO)C[C@@H]1C | . | 3.9
C=C1CC[C@@H]2[C@](C)(CO)[C@H](O)CC[C@@]2(C)[C@@H]1C/C=C1/C(=O)OC[C@H]1O | 0.6 | 48
C[C@@H]1CN([C@H](C)CO)C(=O)c2cc(NC(=O)C3CC3)ccc2O[C@@H]1CN(C)Cc1ccncc1 | 0.6 | 1.0
COc1ccc(N2CCN(CCNC(=O)c3nnc(-c4ccc5c(c4)OCO5)o3)CC2)cc1 | 0.0 | -0.8
CC1(C)C(=O)C=CC2(C)C1CC(O)C1(C)C3=CCC(c4ccoc4)C3(C)CCC21 (centres undefined) | 0.8 | 8.1
CCNc1nc(SCC(=O)OCC)nc2sc3c(c12)CCC(C)C3 (centres undefined) | -1.0 | -1.4
C[C@@H]1CN([C@H](C)CO)C(=O)c2cc(NC(=O)CCC(F)(F)F)ccc2O[C@H]1CN(C)Cc1ccc(-c2ccccc2)cc1 | 1.0 | 0.3
Cc1ccccc1Nc1nnc(C)c(=O)n1N | . | -1.8
Cc1ccc2nsnc2c1NC(=O)Cc1ccc(Cl)cc1 | 0.5 | -6.5
CNC[C@@H]1Oc2c(NS(=O)(=O)c3cccs3)cccc2C(=O)N([C@H](C)CO)C[C@H]1C | . | 2.9
O=C(CN1C(=O)CSc2ccc(C(F)(F)F)cc21)Nc1cccc(C(F)(F)F)c1 | 0.4 | -2.4
O=C(CCn1nc(-c2ccc(Cl)cc2)c2ccccc2c1=O)NCCN1CCOCC1 | -0.6 | -2.3
C[C@@H]1CN([C@@H](C)CO)C(=O)c2cc(NC(=O)C3CC3)ccc2O[C@@H]1CN(C)C(=O)Nc1ccc(F)cc1 | 0.6 | -0.4
O=C(Cn1cnc2c(nnn2-c2cccc(Cl)c2)c1=O)NC1CCCCC1 | 1.6 | 0.9
O=C(CSc1nc(O)cc(=O)[nH]1)N1c2ccccc2Sc2ccccc21 | 0.1 | 0.8
COc1ccc2c(c1)N(C)/C(=C1/OC(=S)N(C)C1=O)S2 | 1.1 | 4.4
CC(CCc1ccccc1)NC(=O)c1ccc(CS(=O)(=O)c2ccc(Br)cc2)o1 (centres undefined) | . | 0.2
C[C@@H]1CN([C@@H](C)CO)C(=O)c2cc(NC(=O)Nc3ccccc3)ccc2O[C@@H]1CN(C)CC1CC1 | 0.7 | -0.9
COc1ccc(OC)c2[nH]c(=O)c(CCNC(=O)/C=C\c3ccc4c(c3)OCO4)cc12 | . | 3.6
C[C@@H]1CN([C@H](C)CO)C(=O)c2cc(NC(=O)Nc3ccc(C(F)(F)F)cc3)ccc2O[C@H]1CN(C)Cc1ccccc1 | 0.1 | 0.2
C[C@H](CO)N1C[C@H](C)[C@@H](CN(C)S(=O)(=O)c2ccc(F)cc2)Oc2ccc(NS(C)(=O)=O)cc2C1=O | 0.5 | 4.7

A second format for 2 compounds above.
| SMILES | A1 inhib | BJeLR viability |
| --- | --- | --- |
| C[C@@H]1CN([C@H](C)CO)C(=O)c2cc(NC(=O)Cc3ccccc3)ccc2O[C@H]1CN(C)S(=O)(=O)c1ccccc1 | 0.7 | -1.9 |
| CC1(C)CC[C@]2(C(=O)O)CC[C@]3(C)C(=CCC4[C@@]5(C)CC[C@H](O[C@@H]6O[C@H](C(=O)O)[C@@H](O[C@@H]7OC[C@@H](O)[C@H](O)[C@H]7O)[C@H](O)[C@H]6O)C(C)(C)C5CC[C@]43C)C2C1 (some centres undefined) | 0.0 | 0.9 |

An excerpt, so the mix of outcomes need not match the whole.
